Screens as filed in PubChem BioAssay.
Beta apoptosis: inhibitors of cytokine-induced beta cell apoptosis, primary screen, luminescence | protection from apoptosis, % (concentration not given with the values) | INS-1E cytokine-induced death, ATP luminescence, 48 h; percent of positive-control rescue, neutral wells zero | 0.8% of 300,000 active;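 active means all replicates at 75% or more, or half of them and the mean; inconclusive means half reach 75% but not the mean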;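 further: 0% = cytokine-treated negative control wells and 100% = positive control rescue; higher means more ATP so stronger rescue from cytokine killing; wells of about 40 µL received 100 nL stock; the first replicate is given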
AF4-AF9 inh: inhibitors of AF4 peptide binding to AF9, primary screen, biochemical, AlphaScreen, biotin-AF4 peptide, FLAG-AF9, single point. Protein AF-9 (Homo sapiens), P42568. inhibition, % at 10 µM. 0.47% of 350,000 active. AID 651704, 2012;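 active means every replicate reaching a set inhibition limit, whatever the replicate mean, cut at about 25% in these data; inconclusive means mean inhibition reaches that limit but some replicates miss it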;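 further: 0% = plate neutral control median and 100% = total signal loss; the record names both 10 and 1 µM as test concentration; the first replicate is given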
Target sequence (P42568 whole entry, looked up): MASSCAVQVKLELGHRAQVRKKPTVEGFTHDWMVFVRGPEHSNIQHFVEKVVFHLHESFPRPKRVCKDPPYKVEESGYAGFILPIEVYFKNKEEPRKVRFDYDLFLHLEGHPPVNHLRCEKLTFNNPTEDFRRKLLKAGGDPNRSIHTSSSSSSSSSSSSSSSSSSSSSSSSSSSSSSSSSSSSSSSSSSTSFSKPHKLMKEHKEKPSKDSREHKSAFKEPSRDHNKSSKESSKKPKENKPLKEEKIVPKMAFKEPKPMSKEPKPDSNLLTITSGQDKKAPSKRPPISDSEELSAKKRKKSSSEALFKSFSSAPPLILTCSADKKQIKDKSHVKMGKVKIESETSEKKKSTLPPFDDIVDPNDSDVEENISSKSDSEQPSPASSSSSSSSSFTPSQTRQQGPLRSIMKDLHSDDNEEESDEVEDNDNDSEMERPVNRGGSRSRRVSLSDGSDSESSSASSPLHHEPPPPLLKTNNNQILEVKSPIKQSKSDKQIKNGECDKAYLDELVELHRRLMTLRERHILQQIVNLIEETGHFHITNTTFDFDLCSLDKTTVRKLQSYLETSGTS
T cruzi inh: inhibitors of intracellular T. cruzi growth, primary screen, luminescence, NIH3T3 host cells; T. cruzi beta-gal in NIH3T3, 90 h; inhibition, % (test concentration not listed); 1.4% of 300,000 active;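 active means mean inhibition across valid replicates above about 55%, limit read from the data; inconclusive means mean below that limit but half or more replicates reach it; inactive means mean below it, under half of replicates reach it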;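 further: signal also drops with host cell toxicity which is not excluded here; 0% = plate median of DMSO wells and 100% = zero luminescence signal; higher percent means less beta-gal luminescence so fewer parasites; stock transfer was 50 nL into about 50 µL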
Calb FLC: C. albicans growth inhibition with fluconazole, primary screen, CaCi-2 strain, Alamar Blue fluorescence. C. albicans CaCi-2 (fluconazole-resistant clinical isolate) + fluconazole, 48 h. growth inhibition, % (concentration not given with the values). 0.57% of 300,000 active. AID 1979, 2009;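 active means most replicates above 75%; inconclusive means exactly half above 75%; inactive means most below 75%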;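 further: all wells also contain fluconazole at 8 µg/ml as a sub-toxic cotreatment; 0% = median of DMSO wells and 100% = median of geldanamycin control wells; wells of about 8 µL received 7.5 nL stock; the first replicate is given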
ALR H2O2 inh: inhibitors of human ALR sulfhydryl oxidase, primary screen, biochemical, H2O2 detection, HRP-luminol luminescence, single point | inhibition, % (test concentration not listed) | AID 485317, 2010 | purified ALR, DTT oxidation | 3.8% of 290,000 active;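 active means mean and each replicate at 75% or more; inconclusive means only one of the two met; inactive means neither met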;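 further: stock transfer was 7.5 nL into about 7.5 µL; 0% = neutral wells and 100% = wells with inactivated enzyme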
Target sequence (P55789 whole entry, looked up): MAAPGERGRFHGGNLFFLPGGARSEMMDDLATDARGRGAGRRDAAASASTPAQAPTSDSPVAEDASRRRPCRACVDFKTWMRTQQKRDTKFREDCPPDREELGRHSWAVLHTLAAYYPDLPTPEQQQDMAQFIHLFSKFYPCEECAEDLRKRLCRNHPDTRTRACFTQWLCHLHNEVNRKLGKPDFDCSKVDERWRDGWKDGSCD
FGF22 binding: binders of human FGF22 protein, primary screen, FGF22 synaptogenesis inhibitor project, biophysical, thermal shift, single point. Fibroblast growth factor 22 (Homo sapiens), Q9HCT0. recombinant FGF22 thermal shift, SYPRO orange fluorescence; percent of sucrose octasulfate shift, DMSO zero. calls only at 9.99 µM. 1.5% of 340,000 active. AID 651658, 2012;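 active means melting point raised past a set limit in the mean and every replicate; inconclusive means no clear call; three in four hits are not shown here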
Target sequence (Q9HCT0 whole entry, looked up): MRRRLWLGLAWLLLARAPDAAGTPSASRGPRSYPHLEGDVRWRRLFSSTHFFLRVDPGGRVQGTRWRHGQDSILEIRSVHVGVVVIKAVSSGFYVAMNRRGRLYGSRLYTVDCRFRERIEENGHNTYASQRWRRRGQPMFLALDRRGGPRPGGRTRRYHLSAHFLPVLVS
RanGTP-Impb inh: inhibitors of RanGTP-importin-beta interaction, primary screen, biochemical, FRET, CFP-Ran, YFP-importin-beta, homogeneous. 1.1% of 300,000 active. cell-free CFP-Ran/YFP-importin-beta FRET ratio. inhibition, % (no concentration beside the values);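 active means most replicates above 15%; inconclusive means exactly half above 15%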;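 further: 0% = DMSO wells and 100% = Ran loaded with GDP instead of GTP; wells of about 40 µL received 100 nL stock; the first replicate is given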
Ecoli rRNA inh: reduced GFP signal of wild-type E. coli, primary screen, bacterial rRNA inhibitor project, GFP/RFP fluorescence, OD600, single point; E. coli WT GFP vs humanized-ribosome RFP mutants, 24 h; active compounds read low; DMSO median 0, no signal -100; AID 720706, 2013; GFP signal change (wild-type ribosome), % (no concentration beside the values); 1.6% of 350,000 active;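 active means significant combined selectivity score with lowered wild-type GFP, culture density cut under 30%, mutant RFP and density less affected; inactive means any of these conditions unmet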; further: one replicate is shown; some compounds called inactive have numbers as strong as hits
Ecoli rRNA inh OD600: further read-out of Ecoli rRNA inh, marked with its call; OD600 change, %; measured here: OD600 growth;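 optical density of the mix in the first replicate; 0 = DMSO median and -100 = no signal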
Ecoli rRNA inh RFP: second read-out of Ecoli rRNA inh, no call of its own (marks repeat the call); RFP signal change, %; measured here: RFP humanized mutant strains;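 first replicate; 0 = DMSO median and -100 = no signal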
Numbers without * were called inactive; i = inactive; u = inconclusive; x = not tested or not shown; + = active, no number. Some of the compounds tested (hit frequency here may not be typical).

cpd	SMILES	Ecoli rRNA inh RFP	AF4-AF9 inh	FGF22 binding	Beta apoptosis	Ecoli rRNA inh OD600	Ecoli rRNA inh	RanGTP-Impb inh	Calb FLC	ALR H2O2 inh	T cruzi inh
1	COc1ccc(N2CCN(/C(=N\S(=O)(=O)c3ccc(C)cc3)Nc3nc(C)cc(C)n3)CC2)cc1	x	x	x	-5	x	x	2.3	-1	15	-6
2	CCn1cc(C(=O)OCC(=O)Nc2ccccc2OC(F)F)c(=O)c2ccc(C)nc21	1.9	-0.4	i	2	-53	-28	x	x	-3	x
3	Cn1c(SCC(=O)CC(=O)Nc2ccccc2)nnc1-c1ccc(O)cc1	7.4*	3.4	i	0	-9.0*	-18*	4.8	7	x	26
4	Cc1c(NC(=S)N/N=C/c2ccc([N+](=O)[O-])cc2O)c(=O)n(-c2ccccc2)n1C	22	2.5	i	38	-9	-17	3.4	3	x	18
5	COc1cccc(C(=O)NNC(=O)C(=O)Nc2ccc(OC)cc2OC)c1	-2.2	-0.8	i	0	2	3	0.3	37	-3	-4
6	O=C(Nc1ccc(Cl)cc1)N1CCCN(Cc2ccccc2F)C1	x	x	x	-1	x	x	0.5	2	-1	25
7	O=C(NCCS(=O)(=O)NC1CCCC1)c1ccccc1	-2.7	-1.6	i	-6	5	6	1.6	12	-12	-12
8	c1ccc(C(c2ccccc2)N2CCN(Cc3nc(-c4cnccn4)no3)CC2)cc1	-2.8	4.9	i	1	-6	1	3.1	1	x	8
9	CCCSc1nc(O)c(C(c2ccc(OC)c(O)c2)c2c(O)nc(SCCC)n(C)c2=O)c(=O)n1C	-2.4	-0.8	i	-9	0	-2	4.7	11	60	-16
10	CCc1noc(C)c1C(=O)OCC(=O)Nc1ccc2c(c1)OCO2	-1.5	-2.5	i	4	-12	-8	x	x	-6	x
11	COc1ccc(C(CNC(=O)c2cc(S(=O)(=O)N3CCCC3)ccc2Cl)N2CCCC2)cc1 (centres undefined)	0.9	-2.3	i	-3	-4	-1	x	x	-3	x
12	CCOC(=O)N1CCN(C(=O)Cc2c(C(=O)O)n(C)c3ccccc23)CC1	-0.4	-0.2	x	-9	4	8	3.6	-2	-6	-4
13	CCCCCc1cccnc1	-1.1	x	i	-10	10	11	-3.2	5	-1	18
14	CCOC(=O)Cn1c(=O)cnc2ccccc21	x	x	x	-5	x	x	1.5	4	2	1
15	Cc1ccc(-n2cccc2/C=C2\C(=N)N3N=C(C(C)C)SC3=NC2=O)cc1	11	1.0	i	11	9	12	-0.7	u	2	-10
16	Cc1cc(C)cc(N(CC(=O)NC2CCC(C)CC2)S(=O)(=O)c2c(C)noc2C)c1 (centres undefined)	-12	-4.4	+	x	-12	-4	x	x	u	x
17	O=C(Nc1ccccc1)c1ccc(F)cc1F	0.5	-0.3	i	2	25	20	-1.6	-9	-2	-10
18	O=C(CCCN1C(=O)/C(=C/c2cccs2)SC1=S)NNC(=O)c1cccnc1	2.1	0.0	i	-3	8	7	-2.0	3	x	8
19	O=C(CCCn1c(=O)c2cccn2c2cccnc21)NCc1cccc(Br)c1	13	-1.6	i	3	15	14	5.8	-12	-2	24
20	O=C(NCC(=O)N1CCN(Cc2ccccc2)CC1)c1ccc(Cl)cc1	2.1	-1.3	i	24	11	7	-2.2	3	0	3
21	CC(C)c1noc2ncc(C(=O)c3cc(Cl)cc(Cl)c3O)cc12	x	x	x	8	x	x	-6.9	99*	43	-6
22	Cc1nn(-c2ccccc2)c2c1C(c1cccs1)C(C#N)=C(N)O2 (centres undefined)	x	x	x	5	x	x	2.5	-4	2	-14
23	CCCC1=[N+](CC)CCn2c(C)ccc21	x	x	x	-1	x	x	1.0	0	-4	0
24	COc1ccc(NS(=O)(=O)c2ccc3c(c2)n(C)c(=O)n3C)cc1	-0.2	3.6	i	3	4	21	0.9	17	-1	-36
25	Cc1ccc(C(=O)NN2CCOCC2)cc1	x	x	x	-1	x	x	0.4	32	98*	-10
26	O=C(NC(=S)NCc1ccco1)c1ccccc1[N+](=O)[O-]	0.3	-0.5	i	-4	2	2	0.2	-5	-1	-13
27	NC(=O)c1cc2ccccc2o/c1=N\NC(=O)c1ccco1	x	x	x	1	x	x	-0.9	11	x	-3
28	COc1ccc(N(CC(=O)N/N=C/c2ccc3c(c2)OCO3)S(=O)(=O)c2ccc(NC(C)=O)cc2)cc1	-2.6	3.5	i	3	-2	-3	2.4	u	-15	13
29	COc1ccc(C)cc1C1=CC(=O)C[C@H](c2ccc(F)cc2)C1	-4.7	-4.0	i	-1	-33	-26	x	x	-3	x
30	O=C(O)C(Oc1ccc2c3c(c(=O)oc2c1)CCC3)c1ccccc1 (centres undefined)	x	x	x	-10	x	x	-1.2	8	-11	-11
31	O=C(N/N=C/c1cc(Br)ccc1O)c1cccc(N2CCCC2=O)c1	x	x	x	56	x	x	6.5	94*	1	-5
32	O=c1cc(N2CCCC2)[nH]c(=O)n1-c1ccc(Cl)cc1	7.0	-6.8	i	-3	1	6	59*	16	14	-16
33	Cc1ccc(CSCCNC(=O)CN(c2cc(C)ccc2C)S(C)(=O)=O)cc1	1.1	2.3	i	x	-54	-33	3.6	4	-27	14
34	CCOc1ccc(C(=O)CCN2CCOCC2)cc1	-1.8	-0.6	i	x	2	6	4.0	21	53	27
35	COc1ccccc1CNC(=O)[C@@H]1CCCN1S(=O)(=O)c1ccccc1F	-2.4	-2.7	i	-10	-1	5	-5.3	-1	1	16
36	C=CCN=C(NC#N)SCC(=O)NC(C)(C)C	x	x	x	-1	x	x	-5.7	22	x	-3
37	CCCNC(=O)Cn1cc(S(=O)(=O)N2CCCC2)c(S(=O)(=O)N2CCCC2)c1	-3.4	-4.2	i	-11	11	6	1.3	-3	2	-13
38	CCOc1cc2c(cc1/C=C(/C#N)c1ccc(C(=O)O)cc1)OCO2	-12	1.0	x	x	-43	-26	4.6	17	7	17
39	COc1ccc(CNc2ncc(-c3cccc([N+](=O)[O-])c3)n2C)c(OC)c1OC	1.2	0.2	i	-6	8	12	5.5	-8	98*	-10
40	Cc1cscc1NC(=O)/C=C/C(=O)O	4.6	-1.8	i	-7	5	4	0.5	-3	x	-11
41	O=C(CNc1ccc(C(F)(F)F)cc1[N+](=O)[O-])OCC(=O)c1ccccc1	x	x	x	-9	x	x	7.5	-2	-11	-11
42	O=C(N/N=C1/CC2C=CCC12)c1ccc(Br)o1 (centres undefined)	2.3	-8.6	i	-7	12	5	5.1	-8	3	-6
43	CS(=O)(=O)N1CCC(C(=O)NCc2ccc3c(c2)OCO3)CC1	-0.8	-0.7	i	-2	-3	8	7.9	-2	9	-20
44	Cc1ccc2nc(-c3ccccc3Cl)cc(C(=O)Nc3cc(C)on3)c2c1	x	x	x	-2	x	x	-2.0	u	2	14
45	O=C1COc2ccc(S(=O)(=O)Nc3ccc(OC(F)(F)F)cc3)cc2N1	-12	-1.6	i	x	-50	-31	-1.2	5	-15	-15
46	CCOC(=O)C1=C(CSc2nc(-c3ccccc3)ccc2C#N)OC(N)=C(C#N)C1c1ccc(OC)cc1 (centres undefined)	x	x	x	-6	x	x	3.7	0	x	12
47	CCc1cccc2c(C(=O)C(NCCCOC)c3ccccc3)c[nH]c12 (centres undefined)	27	3.8	i	5	-66	-29	2.5	-4	0	u
48	CCN(CC(=O)Nc1ccc2c(c1)OCCO2)C(=O)c1ccc(S(=O)(=O)N(C)C)cc1	0.8	-2.5	i	1	7	7	-4.2	-4	0	-11
49	COc1ccc(CCNC(=O)CCNC(=O)c2ccco2)cc1	0.4	0.0	i	-7	-16	-1	0.8	-4	-9	6
50	O=C(Nc1ccc(Br)c(C(F)(F)F)c1)c1ccc(C(F)(F)F)cc1	-22	1.2	i	74*	-81	-57	2.4	-7	x	47
51	O=C(/C=C\NCC(=O)c1ccccc1)c1ccccc1	x	x	x	-6	x	x	u	-25	34	-17
52	OC(CCN1CCCCC1)(c1ccccc1)C1CCCCC1 (centres undefined)	x	-0.3	i	-3	x	x	0.1	x	x	0
53	CC(=O)c1ccc(N2CCN(C(=O)c3ccc(-c4ccccc4)cc3)CC2)cc1	-1.1	-3.8	i	-2	10	4	-1.7	0	8	-8
54	CCN(CCCNC(=O)C1CCN(S(=O)(=O)c2cccc3nonc23)CC1)Cc1ccccc1	x	x	x	-4	x	x	-2.7	9	3	24
55	CCN1CCN(Cc2ccc(OC)c(OCc3ccccc3)c2)CC1	x	x	x	-7	x	x	3.2	3	-52	28
56	O=C(NCC(=O)N(CC1CCCO1)C(C(=O)NC1CCCCC1)c1ccccc1)c1ccco1 (centres undefined)	4.4	-0.8	i	-4	10	14	-5.8	103*	0	-9

The results go on:
cpd	SMILES	Ecoli rRNA inh RFP	AF4-AF9 inh	FGF22 binding	Beta apoptosis	Ecoli rRNA inh OD600	Ecoli rRNA inh	RanGTP-Impb inh	Calb FLC	ALR H2O2 inh	T cruzi inh
57	O=C(Nc1nnc(Cc2ccccc2)s1)c1ccccc1	-1.5	3.1	i	-4	14	16	0.3	0	0	-19
58	O=C(COC(=O)c1ccccn1)Nc1nc(-c2ccccc2)cs1	-3.7	-25	i	3	-9	-15	-1.4	-4	-3	-17
59	COc1ccc(NC(=O)N2CCC(O)(c3cccnc3)CC2)c(OC)c1	x	x	x	6	x	x	2.4	3	-2	4
60	Cc1nc(COc2cc3oc(=O)cc(C)c3cc2Cl)cs1	-1.5	-1.9	i	x	13	9	5.2	6	13	-3
61	O=S(=O)(c1ccc(Cl)cc1)n1ccc2cccnc21	x	x	x	3	x	x	0.4	-25	-4	-2
62	N#CCCC(CCC#N)C1=NCCc2ccccc21	-5.6	-33	i	-11	4	3	5.3	3	x	2
63	Cc1ccc(C)c(NS(=O)(=O)c2ccc3[nH]c(=O)[nH]c3c2)c1	-0.5	-1.0	i	1	4	2	5.1	5	4	-9
64	Cc1cc(N)n(-c2ccc(Oc3ccccc3)c(S(=O)(=O)O)c2)n1	2.8	1.2	i	x	15	15	-3.6	3	x	2
65	O=C(O)CCC(=O)N(Cc1cccs1)Cc1cccs1	x	x	x	1	x	x	-3.3	-1	-1	-7
66	CCOC(=O)/C(C)=C1\NC(C)(C)Cc2ccccc21	1.2	-1.5	i	x	7	11	5.0	-26	x	62*
67	COc1ccc(S(=O)(=O)N2CCN(Cc3cc(OC)c(OC)cc3OC)CC2)cc1	-0.5	4.2	i	-10	4	13	1.5	-1	-42	3
68	CCCc1cc(=O)[nH]c(Nc2ccc(Cl)cc2)n1	-10	-1.6	i	3	-30	-17	u	41	-6	9
69	COc1ccccc1N1CCN(C(=O)/C=C/c2ccco2)CC1	x	x	x	-8	x	x	1.9	0	40	-16
70	CC12CN(NC(=O)c3ccc(Cl)cc3)C3(C#N)CC1CCC23C (centres undefined)	0.4	0.0	i	6	-17	-14	1.7	-12	20	-8
